rRNA inh HTS – reduced GFP signal of wild-type E. coli, primary screen, bacterial rRNA inhibitor project, GFP/RFP fluorescence, OD600, single point; E. coli WT GFP vs humanized-ribosome RFP mutants, 24 h; active compounds read low; DMSO median 0, no signal -100; GFP signal change (wild-type ribosome), % (concentration not given with the values); 350,000 tested, 1.6% active;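 active = significant combined selectivity score with lowered wild-type GFP, culture density cut under 30%, mutant RFP and density less affected; inactive = any of these conditions unmet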; also: one replicate is shown; some compounds called inactive have numbers as strong as hits
FGF22 binding – binders of human FGF22 protein, primary screen, FGF22 synaptogenesis inhibitor project, biophysical, thermal shift, single point; 340,000 tested, 1.5% active; calls only at 9.99 µM; Fibroblast growth factor 22 (Homo sapiens), Q9HCT0; recombinant FGF22 thermal shift, SYPRO orange fluorescence; percent of sucrose octasulfate shift, DMSO zero;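 active = melting point raised past a set limit in the mean and every replicate; three in four hits are not shown here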
Target sequence (Q9HCT0 whole entry, looked up): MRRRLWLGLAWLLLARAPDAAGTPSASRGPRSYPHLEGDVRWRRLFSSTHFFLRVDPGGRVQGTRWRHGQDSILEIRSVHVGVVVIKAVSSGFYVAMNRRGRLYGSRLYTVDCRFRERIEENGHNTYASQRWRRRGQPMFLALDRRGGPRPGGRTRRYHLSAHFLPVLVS
AF4-AF9 inh – inhibitors of AF4 peptide binding to AF9, primary screen, biochemical, AlphaScreen, biotin-AF4 peptide, FLAG-AF9, single point; Protein AF-9 (Homo sapiens), P42568; inhibition, % at 10 µM; 350,000 tested, 0.47% active;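 active = every replicate reaching a set inhibition limit, whatever the replicate mean, cut at about 25% in these data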;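 also: 0% = plate neutral control median and 100% = total signal loss; the record names both 10 and 1 µM as test concentration; the first replicate is given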
Target sequence (P42568 whole entry, looked up): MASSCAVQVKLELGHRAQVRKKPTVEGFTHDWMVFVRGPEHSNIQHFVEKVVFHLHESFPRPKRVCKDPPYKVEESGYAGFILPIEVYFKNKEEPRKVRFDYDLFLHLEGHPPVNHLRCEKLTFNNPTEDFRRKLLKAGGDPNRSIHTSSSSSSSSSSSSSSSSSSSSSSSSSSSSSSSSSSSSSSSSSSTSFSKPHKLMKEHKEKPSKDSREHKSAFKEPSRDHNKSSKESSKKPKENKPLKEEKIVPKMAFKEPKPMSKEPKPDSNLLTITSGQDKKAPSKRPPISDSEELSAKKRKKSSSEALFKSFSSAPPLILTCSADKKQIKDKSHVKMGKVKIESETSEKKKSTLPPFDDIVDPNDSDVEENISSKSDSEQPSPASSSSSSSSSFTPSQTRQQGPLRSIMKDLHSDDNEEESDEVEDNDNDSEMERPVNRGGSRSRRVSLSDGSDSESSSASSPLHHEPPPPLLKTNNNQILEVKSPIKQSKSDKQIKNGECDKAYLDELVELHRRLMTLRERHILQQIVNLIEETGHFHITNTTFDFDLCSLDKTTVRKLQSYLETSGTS
rRNA inh HTS OD600 – recorded beside rRNA inh HTS, whose call it bears; OD600 change, %; measured here: OD600 growth;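 optical density of the mix in the first replicate; 0 = DMSO median and -100 = no signal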
rRNA inh HTS RFP – further read-out of rRNA inh HTS, marked with its call; RFP signal change, %; measured here: RFP humanized mutant strains;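 first replicate; 0 = DMSO median and -100 = no signal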
* = called active by the depositor; i = inactive; + = active, no number; & = joins results of further samples. An excerpt; count on the stated rates, not on these rows.

SMILES	rRNA inh HTS	rRNA inh HTS OD600	rRNA inh HTS RFP	FGF22 binding	AF4-AF9 inh
C[C@@H]1CN([C@@H](C)CO)C(=O)Cc2cc(NC(=O)Nc3ccccc3)ccc2O[C@@H]1CN(C)S(=O)(=O)c1ccc(Cl)cc1	2	-2	0.5	i	-0.8
Cc1ccc(CNC(=O)CSc2nc(=O)n3ccc(C)cc3n2)cc1	12	16	-1.0	i	-2.5
O=C(C[C@H]1C[C@H]2c3cc(NC(=O)c4cccnc4)ccc3O[C@H]2[C@H](CO)O1)NCc1cccnc1	1	9	1.0	i	0.3
C[C@@H]1CN([C@H](C)CO)C(=O)c2cc(NC(=O)NC3CCCCC3)ccc2O[C@H]1CN(C)S(=O)(=O)c1ccc(F)cc1	2	7	-2.7	i	-1.7
CO[C@@H]1CN(C)C(=O)c2ccc(NC(=O)C3CCCC3)cc2OC[C@@H](C)N(C(C)=O)C[C@H]1C	1	-6	-2.0	i	-0.6
C[C@H](CO)N1C[C@H](C)[C@H](CN(C)Cc2cncnc2)Oc2cc(Br)ccc2S1(=O)=O	-4&3	-10&6	-5.1&-3.7	i	-0.4&-1.9
CC(C)NC(=O)Nc1ccc2c(c1)C(=O)N([C@@H](C)CO)C[C@H](C)[C@@H](CN(C)S(C)(=O)=O)OCCCC[C@@H](C)O2	3	6	-3.2	i	-10
Cc1ccc(-c2ccc([C@H]3[C@H]4CN(C)CCCCN4[C@H]3CO)cc2)cc1	4	17	-0.7	i	4.3
O=C(Cc1ccccn1)N[C@@H]1CC[C@@H](CC(=O)N2CCCCC2)O[C@H]1CO	3	8	-0.5	i	0.3
C/C=C/c1cnc2c(c1)C(=O)N([C@H](C)CO)C[C@H](C)[C@H](CN(C)C(=O)NCCC)O2	7	2	-0.6	i	0.7
CCc1nc2c(OCc3ccc(Cl)cc3)cccn2c1N(C=O)Cc1ccccc1	-34	-51	-1.3	i	2.1
NC(CSC(c1ccccc1)(c1ccccc1)c1ccccc1)C(=O)O (centres undefined)	-1	-3	1.9	i	0.7
CO[C@@H]1CN(C)C(=O)c2cc(NC(=O)CC(F)(F)F)ccc2OC[C@H](C)N(CC2CC2)C[C@@H]1C	3	4	-1.3	i	-20
O=C(C[C@@H]1C[C@H]2c3cc(NC(=O)CC4CC4)ccc3O[C@H]2[C@H](CO)O1)NCc1ccncc1	5	1	-0.4	i	0.0
CO[C@@H]1CN(C)C(=O)c2cc(NC(=O)c3ccccc3)ccc2OC[C@@H](C)N(C(=O)C2CC2)C[C@@H]1C	-3	-2	1.8	i	4.2
CCCN(C)C[C@H]1Oc2cc(C#CC3(O)CCCC3)ccc2S(=O)(=O)N([C@@H](C)CO)C[C@H]1C	4	3	-2.4	i	0.4
COc1ccc(NC(=O)COC(=O)c2c(NC(C)=O)sc(C)c2C)cc1	0	5	-0.7	i	-5.2
C[C@@H]1CN([C@H](C)CO)C(=O)c2cc(NC(=O)Nc3ccc(F)cc3)ccc2O[C@H]1CN(C)C	4	8	0.0	i	-1.4
CCOC(=O)[C@]12CCCC=C1N(Cc1ccccc1)C(=O)[C@H](CC(=O)NCCCN1CCCC1=O)C2	7	8	3.9	i	-2.8
C[C@@H]1CN([C@H](C)CO)C(=O)CCCn2nncc2CO[C@H]1CN(C)C(=O)Nc1ccccc1C(F)(F)F	2	2	0.9	i	-3.4

One compound at a time, as listed above. Order of screens: rRNA inh HTS, rRNA inh HTS OD600, rRNA inh HTS RFP, FGF22 binding, AF4-AF9 inh
Results for `COc1ccc(NC(=O)COC(=O)c2c(NC(C)=O)sc(C)c2C)cc1` = 0, 5, -0.7, i, -5.2
Results for `C[C@@H]1CN([C@@H](C)CO)C(=O)Cc2cc(NC(=O)Nc3ccccc3)ccc2O[C@@H]1CN(C)S(=O)(=O)c1ccc(Cl)cc1` = 2, -2, 0.5, i, -0.8

(list continues)
SMILES	rRNA inh HTS	rRNA inh HTS OD600	rRNA inh HTS RFP	FGF22 binding	AF4-AF9 inh
CCC(=O)N1CCC2(CC1)CN(Cc1ccc3c(c1)OCO3)[C@H](CO)c1c2c2ccc(OC)cc2n1C	-7	-11	-0.7	i	3.4
C/C=C/c1ccc([C@@H]2[C@@H](CO)N(c3nc(CC)cs3)[C@H]2C#N)cc1	1	-10	-6.8	i	1.2
CN(C)CC(=O)Nc1ccc2c(c1)[C@H]1C[C@@H](CC(=O)NCc3ccc(Cl)cc3)O[C@@H](CO)[C@H]1O2	-1	-1	-0.6	i	2.0
COc1ccc(CN(C)C[C@H]2OCCCC[C@H](C)Oc3ccc(NC(=O)c4ccncc4)cc3C(=O)N([C@H](C)CO)C[C@@H]2C)cc1	2	5	0.6	i	0.9
CC1(C(=O)NS(=O)(=O)c2ccccc2)CCN1C(=O)C1CCCCC1 (centres undefined)	7	1	-4.2	i	-2.4
C[C@H]1CN([C@@H](C)CO)C(=O)Cc2cc(NS(=O)(=O)c3ccccc3)ccc2O[C@H]1CN(C)C(=O)Nc1ccccc1	4	5	-0.3	i	-3.7
C[C@@H]1CN([C@@H](C)CO)C(=O)c2cccc(NS(=O)(=O)c3ccc(F)cc3)c2O[C@@H]1CN(C)Cc1ccc(C(=O)Nc2ccccc2N)cc1	-6	1	2.1	i	-5.8
N#C[C@H]1[C@@H](c2ccc(C#CC3CCCC3)cc2)[C@@H](CO)N1S(=O)(=O)c1ccccc1	-2	-27	3.3	i	4.0
C[C@H](CO)N1C[C@H](C)[C@@H](CN(C)CC2CC2)OCc2ccccc2-c2ccccc2C1=O	2	-3	-1.9	i	-4.5
C[C@@H]1CCCCO[C@@H](CN(C)C(=O)Nc2ccc(C(F)(F)F)cc2)[C@H](C)CN([C@@H](C)CO)C(=O)c2cc(NS(=O)(=O)c3ccc(Cl)cc3)ccc2O1	-1	3	-6.3	i	-3.8
C[C@@H]1CN([C@@H](C)CO)C(=O)c2cccc(NS(=O)(=O)c3cccs3)c2O[C@H]1CN(C)Cc1ccc(C(=O)O)cc1	0	-5	-2.5	i	-3.7
C[C@H]1CN([C@@H](C)CO)S(=O)(=O)c2ccc(C#CC3CC3)cc2O[C@@H]1CN(C)Cc1ccccc1F	-3	2	0.5	i	1.3
O=S(=O)(NC[C@H]1N[C@H](CO)[C@H]1c1ccccc1)c1ccccc1	2	5	-1.7	+	-1.1
CCCC#Cc1ccc([C@@H]2[C@H](CO)N3CCCCN(Cc4cccnc4)C[C@@H]23)cc1	5	4	1.0	i	0.9
O=C(Cc1ccccc1)N[C@H]1CC[C@@H](CC(=O)N2CCCCC2)O[C@H]1CO	2	2	1.3	i	0.0
O=C(C[C@@H]1C[C@@H]2c3cc(NC(=O)Nc4ccc(C(F)(F)F)cc4)ccc3O[C@@H]2[C@@H](CO)O1)NCC1CC1	-4	-5	0.4	i	-1.3
CCOC(=O)N(C)C[C@@H]1OCc2cnnn2CCCC(=O)N([C@@H](C)CO)C[C@@H]1C	4&1	4&1	13&-1.1	i	-1.3&-1.8
CCCCC[C@H](C)N1C[C@H](COCc2ccccc2)Oc2cc(N3CCC[C@H]3COC)ccc2S1(=O)=O	-7	6	-2.4	i	-1.8
C[C@H](c1ccccc1)N1C[C@@H](COCc2ccccc2)Oc2cccc(Oc3ccccc3)c2S1(=O)=O	7	4	1.0	i	-0.9
C[C@@H]1CN([C@H](C)CO)S(=O)(=O)c2ccc(-c3cccnc3)cc2O[C@H]1CN(C)C(=O)C1CCCCC1	-7	-10	-1.6	i	7.8

Looked up by compound from above, 3 records:
SMILES	rRNA inh HTS	rRNA inh HTS OD600	rRNA inh HTS RFP	FGF22 binding	AF4-AF9 inh
C[C@@H]1CN([C@@H](C)CO)C(=O)c2cccc(NS(=O)(=O)c3cccs3)c2O[C@H]1CN(C)Cc1ccc(C(=O)O)cc1	0	-5	-2.5	i	-3.7
O=C(C[C@@H]1C[C@@H]2c3cc(NC(=O)Nc4ccc(C(F)(F)F)cc4)ccc3O[C@@H]2[C@@H](CO)O1)NCC1CC1	-4	-5	0.4	i	-1.3
C[C@@H]1CN([C@@H](C)CO)C(=O)c2cccc(NS(=O)(=O)c3ccc(F)cc3)c2O[C@@H]1CN(C)Cc1ccc(C(=O)Nc2ccccc2N)cc1	-6	1	2.1	i	-5.8

Carrying on.
SMILES	rRNA inh HTS	rRNA inh HTS OD600	rRNA inh HTS RFP	FGF22 binding	AF4-AF9 inh
C[C@H](CO)N1C[C@H](C)[C@H](CN(C)Cc2ccc3c(c2)OCO3)Oc2c(NC(=O)Nc3ccccc3)cccc2C1=O	-2	1	1.3	i	-8.6
O=C(NCC[C@H]1CC[C@@H](NS(=O)(=O)c2cccc(F)c2)[C@H](CO)O1)Nc1cc(F)ccc1F	-4	-10	1.8	i	2.1
COc1ccc(S(=O)(=O)N(C)C)cc1NC(=O)COc1ccc2c(c1)CCC2	-14	-6	-2.1	i	-0.6
C[C@H](CO)N1C[C@H](C)[C@@H](CN(C)C(=O)Nc2ccc(F)cc2)Oc2c(NC(=O)C3CCCCC3)cccc2C1=O	3	0	-2.6	i	-1.6
O=C(Nc1cccc(F)c1)N[C@H]1CC[C@H](CCNS(=O)(=O)c2cccc(Cl)c2)O[C@@H]1CO	1	-13	-4.7	i	3.7
COc1ccc(-c2ccc([C@H]3[C@@H](C#N)N(C(=O)C4CC4)[C@H]3CO)cc2)cc1	-4	-10	0.4	i	-0.9
C[C@@H]1CN([C@H](C)CO)C(=O)Cc2cc(NC(=O)Nc3ccc(F)cc3)ccc2O[C@@H]1CN(C)C(=O)Nc1ccc2c(c1)OCO2	3	7	0.6	i	3.0
C[C@H](CO)N1C[C@H](C)[C@@H](CN(C)Cc2ccc(Cl)c(Cl)c2)Oc2c(NC(=O)Nc3ccc(C(F)(F)F)cc3)cccc2C1=O	-1	1	0.5	i	0.1
CCC(=O)N1[C@@H](CO)[C@@H](c2ccc(-c3ccccc3C)cc2)C12CN(C(C)=O)C2	-1	-1	-4.0	i	0.7
CCCC(=O)Nc1ccc2c(c1)OC[C@@H](C)N(Cc1ccccc1)C[C@H](C)[C@@H](OC)CN(C)C2=O	-2	-12	5.9	i	2.4
CCOc1ccc(CCN2C(=S)N([C@@H](Cc3ccc(O)cc3)CN3CCC[C@@H]3CN3C(=S)NC[C@@H]3Cc3ccccc3)C[C@@H]2Cc2ccc(O)cc2)cc1	10	17	7.3	i	-3.7
CN(CC(=O)Nc1ccc(Cl)c(Cl)c1)C(=O)c1ccccc1SCC(=O)N1CCCC1	-35	-62	-3.4	i	0.8
C[C@@H]1CCCCO[C@@H](CN(C)CC2CCCCC2)[C@H](C)CN([C@@H](C)CO)C(=O)c2cc(NC(=O)C3CCCCC3)ccc2O1	4	-6	0.7	i	5.8
C[C@H]1CN([C@@H](C)CO)C(=O)c2cccc(NS(=O)(=O)c3cccs3)c2O[C@H]1CN(C)C(=O)Nc1ccc(F)cc1	-1	0	2.0	i	-0.1
CCCC(=O)N1CC2(C1)CN(C(=O)CC1CC1)[C@@H](CO)c1c2c2ccc(OC)cc2n1C	-2	-2	-1.1	i	-0.3
C/C=C/c1ccc([C@H]2[C@@H](CO)N(C(=O)CC)C23CN(C(=O)c2ccccc2)C3)cc1	-3	-7	3.6	+	2.7
CN(C)CCCNC(=O)C[C@H]1C=C[C@@H](NC(=O)c2ccccc2F)[C@H](CO)O1	4	-6	-1.1	i	-1.4
CN(C)C(=O)C[C@@H]1CC[C@@H]2[C@H](COC[C@@H](O)CN2CC2CC2)O1	0	9	4.5	i	-7.5
C[C@H]1CN([C@@H](C)CO)C(=O)c2cc(NC(=O)Nc3ccccc3)ccc2O[C@H]1CN(C)Cc1ccccc1	1	-3	-1.9	i	0.3
CSCCC(C(=O)NCc1ccccc1)n1c(-c2ccc3c(c2)CCO3)nc2ccccc21 (centres undefined)	-17*	-19*	4.7*	i	-4.6
Cc1ccc(S(=O)(=O)N[C@@H]2CC[C@@H](CC(=O)NCc3ccncn3)O[C@@H]2CO)cc1	2	8	-1.0	i	-1.2
Cc1cc(C)c2c(=O)n(CC(=O)N3CCN(c4ccccc4)CC3)ccc2n1	-4	4	0.0	i	-3.8
O=C(Cc1ccccc1)N1C[C@H]2[C@@H](c3ccccc31)[C@H](CO)N2C(=O)C1CC1	2	5	-1.3	i	1.9

Reformatted: three of the compounds above.
COc1ccc(-c2ccc([C@H]3[C@@H](C#N)N(C(=O)C4CC4)[C@H]3CO)cc2)cc1
  rRNA inh HTS: -4 | rRNA inh HTS OD600: -10 | rRNA inh HTS RFP: 0.4 | FGF22 binding: i | AF4-AF9 inh: -0.9
C[C@@H]1CN([C@H](C)CO)C(=O)Cc2cc(NC(=O)Nc3ccc(F)cc3)ccc2O[C@@H]1CN(C)C(=O)Nc1ccc2c(c1)OCO2
  rRNA inh HTS: 3 | rRNA inh HTS OD600: 7 | rRNA inh HTS RFP: 0.6 | FGF22 binding: i | AF4-AF9 inh: 3.0
C[C@H](CO)N1C[C@H](C)[C@@H](CN(C)Cc2ccc(Cl)c(Cl)c2)Oc2c(NC(=O)Nc3ccc(C(F)(F)F)cc3)cccc2C1=O
  rRNA inh HTS: -1 | rRNA inh HTS OD600: 1 | rRNA inh HTS RFP: 0.5 | FGF22 binding: i | AF4-AF9 inh: 0.1

Screening data as filed in PubChem.
